Beta2AR agonist = human beta-2 adrenergic receptor agonism by FAP; Am2.2-beta2AR cells, FAP receptor internalization, flow cytometry; reference of the scale not given here; response, % (test concentration not listed); 0.43% of 340,000 active; AID 504454;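 active = response above a set limit, near 3 SD of response in nonfluorescent compounds, cut at about 42% in these data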;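 note: stock transfer was 100 nL into about 11 µL; a reference agonist was the positive control; negative values mostly stem from fluorescent compounds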
Target sequence (P07550 whole entry, looked up): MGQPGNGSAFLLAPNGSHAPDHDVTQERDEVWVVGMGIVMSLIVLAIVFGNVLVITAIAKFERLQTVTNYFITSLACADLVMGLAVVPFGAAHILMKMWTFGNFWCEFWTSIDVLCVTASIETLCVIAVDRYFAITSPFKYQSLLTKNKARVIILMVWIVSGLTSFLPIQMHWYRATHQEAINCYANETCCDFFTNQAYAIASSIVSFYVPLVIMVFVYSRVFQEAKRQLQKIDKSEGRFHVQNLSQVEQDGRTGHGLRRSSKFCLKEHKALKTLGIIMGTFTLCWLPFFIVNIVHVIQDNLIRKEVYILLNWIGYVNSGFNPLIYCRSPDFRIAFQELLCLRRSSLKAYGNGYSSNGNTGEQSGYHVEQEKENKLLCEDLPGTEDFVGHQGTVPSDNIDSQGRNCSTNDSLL
E coli growth = E. coli growth inhibition | Escherichia coli growth, OD600, 23 h; stronger effect = lower value | OD600 absorbance (test concentration not listed) | 0.21% of 330,000 active | AID 1053175;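 active = OD600 absorbance below the run mean of sample wells minus 3.6 SD, in any replicate, cut at about 0.56 in these data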;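 note: stock transfer was 300 nL into about 60 µL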
HNF4A DNA FP = change in binding of human HNF4 alpha to DNA; AID 1224865; 0.3% of 360,000 active; activity change, % at 10 µM; HNF4a-FITC DNA binding, fluorescence polarization, 1 h; P41235; in the data active = activity change above about 30%, passing the limit was not always enough;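 note: controls were the assay level and a saturating level of protein; the project sought stronger binding though the title names inhibitors; some compounds called inactive have numbers as strong as hits; positive values seem to mean higher polarization but the record does not say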
Target sequence (P41235 whole entry, looked up): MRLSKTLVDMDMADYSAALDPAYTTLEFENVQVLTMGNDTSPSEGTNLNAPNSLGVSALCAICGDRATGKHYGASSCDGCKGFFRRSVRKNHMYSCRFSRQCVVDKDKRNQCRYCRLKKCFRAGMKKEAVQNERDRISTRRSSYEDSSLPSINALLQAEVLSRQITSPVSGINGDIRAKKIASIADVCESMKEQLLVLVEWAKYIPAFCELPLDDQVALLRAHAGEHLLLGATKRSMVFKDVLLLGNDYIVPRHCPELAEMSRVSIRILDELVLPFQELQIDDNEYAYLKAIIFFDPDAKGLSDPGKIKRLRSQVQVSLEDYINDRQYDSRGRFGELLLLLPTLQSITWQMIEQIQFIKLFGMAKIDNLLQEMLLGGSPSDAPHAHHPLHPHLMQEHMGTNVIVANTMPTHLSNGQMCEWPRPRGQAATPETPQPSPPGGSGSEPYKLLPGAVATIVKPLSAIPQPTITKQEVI
rRNA inh HTS = inhibitors of bacterial rRNA selective over humanized ribosomes; E. coli WT GFP vs humanized-ribosome RFP mutants, fluorescence, 24 h; stronger effect = lower value; DMSO median 0, no signal -100; AID 720706; GFP signal change (wild-type ribosome), % (test concentration not listed); 1.6% of 350,000 active;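 active = significant combined selectivity score with lowered wild-type GFP, culture density cut under 30%, mutant RFP and density less affected; inactive = any of these conditions unmet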; note: one replicate is shown; some compounds called inactive have numbers as strong as hits
ALR H2O2 inh = human ALR oxidase inhibition via reduced H2O2. P55789. purified ALR, DTT oxidation, H2O2 HRP-luminol luminescence. inhibition, % (test concentration not listed). 3.8% of 290,000 active. AID 485317;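 active = mean and each replicate at 75% or more; inconclusive = only one of the two met; inactive = neither met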;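 note: stock transfer was 7.5 nL into about 7.5 µL; 0% = neutral wells and 100% = wells with inactivated enzyme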
FGF22 binding = FGF22 (human) thermal shift binding; Q9HCT0; recombinant FGF22 thermal shift, SYPRO orange fluorescence; percent of sucrose octasulfate shift, DMSO zero; calls only at 9.99 µM; 1.5% of 340,000 active;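 active = melting point raised past a set limit in the mean and every replicate; inconclusive = no clear call; three in four hits are not shown here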
Target sequence (Q9HCT0 whole entry, looked up): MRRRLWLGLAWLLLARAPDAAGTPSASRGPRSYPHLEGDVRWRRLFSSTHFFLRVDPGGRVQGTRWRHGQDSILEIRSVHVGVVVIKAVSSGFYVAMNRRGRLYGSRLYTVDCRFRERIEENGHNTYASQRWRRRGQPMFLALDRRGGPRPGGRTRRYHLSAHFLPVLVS
UCH37 DUB inh = blocks the human deubiquitinase UCH37 | 0.33% of 330,000 active | purified proteasome/UCH37, Ub-AMC cleavage fluorescence | inhibition, % (test concentration not listed) | Q9Y5K5;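 active = mean of two replicates above 20%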;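 note: 0% = compound-free wells with enzyme and 100% = wells lacking proteasome; stock transfer was 100 nL into about 20 µL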
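Material: human UCH37 enzyme supplied as purified proteasome complex. Measure: % inhibition of Ub-AMC cleavage fluorescence. Medium: pH 7.4 Tris-HCl (50 mM) with ovalbumin, ATP-MgCl2, DTT. Times: 30 min preincubation with enzyme, 25 min cleavage at room temperature. Detection: AMC fluorescence intensity at 355/460 nm.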
rRNA inh HTS OD600 = further read-out of rRNA inh HTS, marked with its call; OD600 change, %; measured here: OD600 growth;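 optical density of the mix in the first replicate; 0 = DMSO median and -100 = no signal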
rRNA inh HTS RFP = also measured in rRNA inh HTS; calls as there; RFP signal change, %; measured here: RFP humanized mutant strains;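 first replicate; 0 = DMSO median and -100 = no signal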
The depositor's hits bear a star; i = inactive; ? = inconclusive; · = no result given; + = active, no number. An excerpt. The share of hits here may be higher or lower than overall.

SMILES	Beta2AR agonist	E coli growth	HNF4A DNA FP	rRNA inh HTS	rRNA inh HTS OD600	rRNA inh HTS RFP	ALR H2O2 inh	FGF22 binding	UCH37 DUB inh
Cc1ccc(C)c(NC(=O)CSc2nc(N)c(NC(=O)c3cccs3)c(=O)[nH]2)c1	0	·	3.1	6	18	-1.1	·	i	·
O=C(NCc1ccccc1Cl)c1ccc(Br)o1	-4	0.7	1.7	3	4	5.7	-1	i	2.3
COc1ccccc1C(CNC(=O)CCNC(=O)c1ccccc1Cl)N1CCCC1 (stereo unspecified)	-2	0.61	0.2	9	-3	-3.9	-10	i	2.4
O=C1C(Cl)=C(NCCCN2CCOCC2)C(=O)N1CCc1ccccc1	-2	0.74	-4.0	·	·	·	6	·	2.7
CC(C)NC(=O)NC(=O)COc1ncnc2sccc12	3	0.66	2.7	·	·	·	-4	·	-2.2
O=S(=O)(c1ccc(F)cc1)N1CCN(c2nc(-c3ccc(F)cc3)cs2)CC1	-1	0.7	0.7	0	-4	-1.1	-3	·	-1.6
COc1ccccc1C(C)NC(=O)CCNC(=O)c1ccc(Cl)cc1 (stereo unspecified)	-1	0.69	-0.8	10	14	-1.2	·	i	0.4
CCOc1cccc(N(C(=O)CCC(=O)Nc2cc(C)on2)C(C(=O)NC(C)(C)C)c2ccc(OC)cc2)c1 (stereo unspecified)	13	0.69	-0.2	6	8	1.3	-2	i	3.9
CCCCCN(C(=O)CCC(=O)OCC(=O)N(CC)C1CCCCC1)c1c(N)n(CCCC)c(=O)[nH]c1=O	-1	0.59	1.8	-4	-5	0.5	2	i	2.2
O=C(c1ccco1)N1CCN(C(=O)c2ccco2)C1=S	-10	·	-1.4	-3	5	-0.3	·	i	·
COc1ccc(-n2cc(-c3ccc(Br)cc3)[nH]c2=S)cc1	-3	0.76	-1.5	12	4	0.3	67	i	2.6
CCS(=O)(=O)N1CCN(c2ncnc3sc(C)c(C)c23)CC1	6	0.64	-0.7	-14	-26	-2.8	-2	i	2.0
Cc1nn(Cc2ccccc2)c(Cl)c1C(=O)OC(C)C#N (stereo unspecified)	-6	0.69	-1.9	-10	-11	2.9	-35	i	6.0
CCOc1ccc(N2C(=O)CC(N3CCc4ccccc43)C2=O)cc1 (stereo unspecified)	4	0.69	4.7	·	·	·	10	·	0.0
O=C(CCN1C(=O)S/C(=C/c2ccc(F)cc2)C1=O)Nc1ccc(O)c(C(=O)O)c1	-15	0.68	-2.2	5	14	0.8	4	i	-11
Cc1oc2cc(Br)c(O)c(Br)c2c1C(=O)c1ccccc1	3	0.65	-1.4	-69	-81	-25	18	i	6.3
O=C(Cn1c(NCCO)nc2ccccc21)Nc1cccc(S(=O)(=O)N2CCCC2)c1	-1	0.69	6.1	-21	-10	2.3	2	i	-2.7
CCNc1nc(Cl)nc(NC2CCCCC2)n1	-3	0.65	-0.7	-16	-15	-4.4	?	i	1.5
O=C(COC(=O)c1cc(S(=O)(=O)N2CCOCC2)ccc1Cl)NCCc1ccccc1	-5	0.68	0.9	-4	2	3.8	-1	i	3.0
O=[N+]([O-])CC(=Nc1ccc(Cl)cc1)N/N=C\c1oc(O)c2ccccc12	5	·	2.0	·	·	·	15	·	·
COc1ccccc1N1C(=O)S/C(=C\c2ccc(C)s2)C1=O	-41	0.69	43*	3	-6	5.5	6	i	2.0
O=C(CCn1c(=S)[nH]c2ccccc2c1=O)Nc1cccc(Cl)c1	-14	0.72	-2.2	0	0	-2.2	-5	i	5.6
CC(CC(=O)O)CC1=NS(=O)(=O)c2ccccc2N1 (stereo unspecified)	-2	0.69	3.8	·	·	·	-1	·	5.7
O=C(NC(=S)Nc1cccc(Cl)c1Cl)C1CC1	-10	0.71	1.4	-11	-1	5.9	2	i	-1.2
CCOC(=O)C1CCN(C(=O)Cn2nc(C)c3c(C)n(-c4ccccc4)nc3c2=O)CC1	-2	0.69	4.0	23	14	8.0	0	i	1.2

Additional entries:
SMILES	Beta2AR agonist	E coli growth	HNF4A DNA FP	rRNA inh HTS	rRNA inh HTS OD600	rRNA inh HTS RFP	ALR H2O2 inh	FGF22 binding	UCH37 DUB inh
Cc1cc(C)c2c(c1)-c1cc(C)nn1C(c1ccc3c(c1)OCO3)N2 (stereo unspecified)	-2	0.66	1.3	·	·	·	11	·	-56
Cc1ccc(-c2nnc(N3CCN(C(=O)c4ccco4)CC3)c3ccccc23)cc1	25	0.7	0.2	·	·	·	5	·	3.9
O=[N+]([O-])c1ccc(N=Nc2ccc(O)c3ccccc23)cc1	-200	0.68	20	·	·	·	·	·	6.8
O=C1Nc2ccc(Cl)cc2C12Nc1ccccc1-c1nnc(SCc3ccccc3F)nc1O2 (stereo unspecified)	5	0.64	2.1	·	·	·	3	·	5.3
C[C@@H]1C[C@@H]2O[C@H]2/C=C\C=C\C(=O)Cc2c(Cl)c(O)cc(O)c2C(=O)O1	9	·	1.1	·	·	·	24	i	·
Cc1[nH]c2ccccc2c1/C=N/NC(=O)c1cccc(F)c1	-7	·	0.1	2	2	2.5	55	+	·
O=C(Nc1cccc(Cl)c1)N1CCN(Cc2ccccc2)CC1	-2	0.7	-0.8	-29	-45	-2.1	-4	i	4.0
CCc1cc2ccc(OC)cc2nc1SCC(=O)NNC(=O)c1ccco1	-2	0.69	2.4	-36	-34	-15	49	·	-0.7
Cc1ccc(C)c(NC(=O)Cn2nc(C(F)(F)F)cc2C2CC2)c1	2	0.7	-3.3	·	·	·	15	·	1.7
COc1ccc(NC(=O)CON=CC(=O)Nc2ccc(C)cc2)c(OC)c1	0	0.69	4.8	5	2	-0.6	·	i	-2.3
Cc1ccc(-n2c(C)nc3c(cnn3-c3ccc(C)c(C)c3)c2=O)cc1C	12	0.72	-0.7	9	11	2.1	0	i	7.3
O=C(CN(C(=O)Cn1nnc(-c2ccccc2F)n1)c1cnc2ccccc2c1)NCC1CCCO1 (stereo unspecified)	-2	0.67	4.8	8	0	3.6	-3	i	-1.5
Cc1ccc(CNC(=O)Cn2nnc3ccccc3c2=O)cc1	-5	0.74	-5.0	18	3	4.8	-3	i	4.9
COc1cccc(CNC(=O)CCS(=O)(=O)c2ccc3c(c2)NC(=O)CS3)c1	6	0.7	-2.5	2	2	-1.3	1	i	5.2
COc1ccccc1CNC(=O)c1cccc(NC(=O)c2ccccc2)c1	6	0.66	2.1	·	·	·	2	·	4.6
Fc1ccc(NC(=S)N/N=C/c2ccc(F)c(F)c2)cc1	4	·	-1.4	-11	-10	2.5	·	i	·
CCn1c(=S)sc2c(=O)n(CC(=O)Nc3cccc(Cl)c3)c(C)nc21	-5	0.66	3.6	-11	-39	4.1	-17	i	2.5
C=CCN(C(=O)c1csnn1)C(C(=O)NCc1ccccc1)c1ccccc1F (stereo unspecified)	4	0.68	-0.8	1	-3	-1.3	-5	i	-0.1
CCOC(=O)C1=C(CN2CCN(C(=O)c3ccco3)CC2)NC(=O)NC1c1ccc(OC(C)C)cc1 (stereo unspecified)	-19	0.68	4.4	-3	4	-2.8	-5	i	3.8
CCN(CC(=O)NCc1cccs1)c1ccc(S(=O)(=O)N2CCOCC2)cn1	-2	0.69	1.5	·	·	·	·	·	6.4
COc1ccc(C2/C(=C(\O)c3ccc4c(c3)OCCO4)C(=O)C(=O)N2Cc2cccnc2)cc1OC (stereo unspecified)	1	0.68	-2.7	10	19	-1.5	-8	i	12
O=C(CSc1nncs1)NC(=O)NCc1ccco1	-1	0.65	-2.0	7	5	-7.5	-15	i	3.9
O=C(O)CCc1ccc(-c2ccccc2)n1CC1CCCO1 (stereo unspecified)	5	0.7	-19	·	·	·	·	·	-178
O=C(O)C1(Cc2nc3ccccc3[nH]2)CCCC1	5	0.65	0.0	9	11	0.2	-1	i	1.7
CSc1nnc(CCNS(=O)(=O)c2ccc(Br)cc2)n1C	-1	0.66	0.7	1	2	-1.2	·	i	3.1

Continuation:
SMILES	Beta2AR agonist	E coli growth	HNF4A DNA FP	rRNA inh HTS	rRNA inh HTS OD600	rRNA inh HTS RFP	ALR H2O2 inh	FGF22 binding	UCH37 DUB inh
c1ccc(CNCc2ccco2)cc1	5	0.68	-4.3	13	21	1.4	-2	i	2.1
COc1ccc(C(=O)NC(=S)NNC(=O)[C@H]2C[C@@H]2c2ccccc2)cc1OC	1	0.62	-0.9	·	·	·	34	i	0.7
COc1ccc(CC(=O)OC(C)C(=O)Nc2c(C)n(C)n(-c3ccccc3)c2=O)cc1OC (stereo unspecified)	1	0.69	3.5	2	9	-4.1	·	i	5.3
O=C(COc1ccc2ccc(=O)oc2c1)OCc1ccccc1	1	0.72	-1.9	-5	-7	-1.6	-3	i	-1.9
CCCCc1nc2sc3c(=O)n(N)cnc3c2c2c1CCCC2	-13	0.69	-0.7	3	11	0.5	-1	i	-3.3
CCCCCC(=O)Nc1ccc(Cl)cn1	6	0.65	6.6	9	1	2.8	-1	i	-0.1
Cc1ccc(NC(=O)CCCC(=O)O)c(Br)c1	10	0.79	-0.2	·	·	·	6	·	0.9
CCn1ncc(/C=N/NS(=O)(=O)c2ccc(Cl)cc2)c1C	-2	·	1.2	·	·	·	40	·	·
COCCSc1nnc(-c2cccc(C#N)c2)n1C	3	0.67	1.9	·	·	·	-11	·	0.4
O=C(CCC(=O)N1CCOCC1)NCCc1ccccc1	3	0.67	1.6	0	8	-1.5	-1	i	-0.6
COC(=O)c1ccc(NC(=O)CSc2nc(N)c(NC(=O)c3ccc(Br)o3)c(=O)[nH]2)cc1	-2	0.73	2.3	8	9	-2.7	-7	i	2.4
O=C(COc1ncnc2scc(-c3ccc(Cl)cc3)c12)NCc1ccco1	2	0.8	1.1	·	·	·	1	·	5.5
Cc1cccc(NC(=O)NNC(=O)c2ccc3ccccc3c2)c1	-1	0.7	2.9	3	8	1.1	-6	i	1.9
CC(SC1CCCC1)C(=O)Nc1ccnn1C(C)C (stereo unspecified)	0	0.68	0.6	·	·	·	-5	·	1.5
CC1(C)CC(=O)C2=C(C1)c1c(ccc3ccccc13)NC2c1ccco1 (stereo unspecified)	3	0.66	-4.2	-17	-26	2.9	-32	i	-172
CCCCCOc1ccc(NC(=O)CSc2cccc3cccnc23)cc1	-6	0.7	-3.4	16	16	-0.4	-3	i	-9.9
Cc1oc(-c2cccc(Cl)c2)nc1CN1CCC(C(=O)NCC2CCCO2)CC1 (stereo unspecified)	-6	0.69	-1.5	·	·	·	5	·	2.6
Cc1ccc(NC2=C(Cl)C(=O)OC2OC(=O)c2ccc(C)cc2)cc1 (stereo unspecified)	-1	0.68	0.9	-31	-37	-4.8	9	i	-0.2
Cc1cc(NC(=O)CS(=O)(=O)c2c[nH]c3ccccc23)no1	2	0.7	2.0	11	7	0.3	1	i	5.1

Exported bar-delimited: six of the compounds above
SMILES | Beta2AR agonist | E coli growth | HNF4A DNA FP | rRNA inh HTS | rRNA inh HTS OD600 | rRNA inh HTS RFP | ALR H2O2 inh | FGF22 binding | UCH37 DUB inh
c1ccc(CNCc2ccco2)cc1 | 5 | 0.68 | -4.3 | 13 | 21 | 1.4 | -2 | i | 2.1
COc1ccc(C(=O)NC(=S)NNC(=O)[C@H]2C[C@@H]2c2ccccc2)cc1OC | 1 | 0.62 | -0.9 | · | · | · | 34 | i | 0.7
COc1ccc(CC(=O)OC(C)C(=O)Nc2c(C)n(C)n(-c3ccccc3)c2=O)cc1OC (stereo unspecified) | 1 | 0.69 | 3.5 | 2 | 9 | -4.1 | · | i | 5.3
O=C(COc1ccc2ccc(=O)oc2c1)OCc1ccccc1 | 1 | 0.72 | -1.9 | -5 | -7 | -1.6 | -3 | i | -1.9
CCCCc1nc2sc3c(=O)n(N)cnc3c2c2c1CCCC2 | -13 | 0.69 | -0.7 | 3 | 11 | 0.5 | -1 | i | -3.3
CCCCCC(=O)Nc1ccc(Cl)cn1 | 6 | 0.65 | 6.6 | 9 | 1 | 2.8 | -1 | i | -0.1

Compound activity deposited in PubChem by several laboratories.
